# Bioassay records deposited in PubChem by SRMLSC.
# H5N1 CPE: antiviral screen in MDCK cells, H5N1 avian flu; cytopathic effect, luminescence, 72 h; stronger effect = higher value; no value below 0 was filed and about half of the inactive calls have no number; reference of the scale not given here; inhibition, % at 50 µM; hit rate 0.07% among 96,000; in the data active = inhibition above about 25%
# * = called active by the depositor; i = inactive.
SMILES,H5N1 CPE
CCn1c(SCC(=O)Nc2ccccc2C(=O)OC)nnc1-c1ccoc1C,0.6
O=C(Nc1ccc(Cl)cc1)N1CCCC1,i
Cc1oc2cc(O)ccc2c(=O)c1Oc1ccccc1Br,i
CC(=O)Oc1ccccc1-c1nc(C)nc(N(C)C(C)=O)n1,0.7
Cc1sc(NC(=O)C2CCCO2)c(C#N)c1C (stereo unspecified),i
CN(C)c1ccc2c(c1)N=C(c1ccco1)OP2(=S)N1CCOCC1 (stereo unspecified),i
Cc1nc(N)sc1C(=O)Nc1ccccc1,i
O=C(Nc1ccccc1)/C(=C\c1ccc2c(c1)OCO2)NC(=O)c1ccco1,0.0
Cc1ccc2[nH]c(=S)cc(C)c2c1,1.1
O=P(O)(O)C#Cc1ccccc1,i
CCOC(=O)C1CCN(Cc2c(O)ccc3ccccc23)CC1,i
CCC(c1nnnn1CCOC)N(Cc1ccc(C)cc1)Cc1cc2cc(OC)ccc2[nH]c1=O (stereo unspecified),2.2
CN(C)S(=O)(=O)N1CCN(c2cccc(Cl)c2)CC1,1.5
CCOCCCn1c(C)nc2c(c1=O)c1nc3ccccc3nc1n2-c1ccc(C)cc1,2.8
CC(C)Cc1cc(C(=O)NCCN2CCOCC2)no1,1.5
O=C(Nc1ccccc1Cl)c1cccs1,0.2
CC(C)(C)C1CCc2c(C(=O)N/N=C/c3cccs3)csc2C1 (stereo unspecified),0.5
Cc1ccc(S(=O)(=O)N2CCCC2C(=O)Nc2cc(C)on2)cc1 (stereo unspecified),i
Cc1ccc(-c2nnn(CC(=O)Nc3cccc4cccnc34)n2)o1,i
COc1ccc(NC(=O)OC(CN2CCCCC2)C(F)(F)F)cc1 (stereo unspecified),i
Cc1nc2oc(C(=O)c3ccccc3)c(N)c2c2c1COC(C)(C)C2,0.8
COc1ccc(Oc2nnc(C)c3ccccc23)cc1,i
Cc1ccc(C(=O)O/N=C(\N)c2ccc(Br)cc2)cc1C,i
CCN(CC)C(=O)c1ccc(C(=O)c2ccccc2)cc1,0.2
CC(=O)Nc1cccc(NC(=O)CCc2ccccc2)c1,i
CCCCN1C(=O)CC(Sc2ccccc2C(=O)O)C1=O (stereo unspecified),i
CC(NC(=O)NCCCC(=O)O)(C(F)(F)F)C(F)(F)F,0.4
COc1cccc(C2C(C#N)=C(N)Oc3c2oc(CO)cc3=O)c1OC (stereo unspecified),0.7
Cc1ccc(NC2=C(N3CCCCC3)C(=O)c3ccccc3C2=O)cc1,i
N#CCCn1c(C(C#N)(CCC#N)CCC#N)nc2ccccc21,0.1
COc1cc(OC)cc(C(=O)NCC(=O)N2CCC(C)CC2)c1,2.0
CN1CCc2c(sc(/N=C/c3ccco3)c2C(N)=O)C1,2.5
CC(C)Cn1cnc2c1c(=O)n(CC(O)c1ccccc1)c(=O)n2CC(C)C (stereo unspecified),i
Cc1ccc(S(=O)(=O)N/N=C\c2ccc(C)o2)cc1,i
CCCN1C(=O)C(NS(=O)(=O)c2ccc(N)cc2)(C(F)(F)F)C(C(=O)OC)=C1C (stereo unspecified),0.0
O=C(c1cccc(S(=O)(=O)N2CCOCC2)c1)N1CCOCC1,i
CC(C)(C)c1ccc(-c2nnc(SCCC#N)n2C2CCCC2)cc1,2.1
COC(=O)c1cc2c(C)cc3ccc(C)cn3c-2c1C(=O)OC,1.8
CC(=O)c1ccc(-c2nc3c4ccccc4ccn3c2C(C)=O)o1,0.8
CCOc1ccc(C(C)NC(=O)CCC(=O)O)cc1 (stereo unspecified),i
Cn1c(Cc2cccs2)nnc1SCC(=O)N1CCc2ccccc21,0.9
COc1cccc2cc(C(=O)N3CCN(c4ccccc4F)CC3)c(=O)oc12,0.1
O=[N+]([O-])c1ccc(Cl)c(/C=N/N2CCN(Cc3ccc(Cl)cc3)CC2)c1,i
Cc1cc(NS(=O)(=O)c2ccc(C3CCCCC3)cc2)no1,i
CC1=C(C(=O)OCC2CCCO2)C(c2ccncc2)C2=C(CC(C)(C)CC2=O)N1 (stereo unspecified),1.2
O=C(O)c1ccccc1Nc1ccccc1C(=O)O,1.1
OCCNc1nc(NCCC2=CCCCC2)nc(N2CCOCC2)n1,i
CCOC(=O)Nc1ccc(C(N)=O)cc1,0.1
Cc1ccc(Oc2ccc(/C=N/O)cn2)cc1,i
Cn1c(=O)n(CCOc2ccc(Cl)cc2Cl)c2ccccc21,1.0

# Additional entries follow:
SMILES,H5N1 CPE
COc1ccc(N2C(=O)C3CCCN3C2c2cc(OC)c(OC)c(OC)c2)cc1 (stereo unspecified),i
C=CCc1cccc2cc(C(=O)NC3=C(C#N)CCC3)c(=O)oc12,0.3
O=c1c2ccccc2c(C=NCCCN2CCOCC2)c(O)n1Cc1ccccc1,i
Cc1ccc(C2C(C#N)C(C#N)N3CCCN23)cc1 (stereo unspecified),i
Cc1ccc(S(=O)(=O)c2ccc(Oc3ccccc3)cc2)cc1,0.3
N#Cc1nc(COc2ccccc2)oc1N1CCCCC1,i
COc1ccc(C)cc1NC(=O)Nc1ccc(Br)cn1,0.4
CC[N+](CC)(CC)CCCCCCCCCC[N+](CC)(CC)CC,i
CCN(CC)CCNC(=O)c1cn(C)c2ccc(S(=O)(=O)N(C)C3CCCCC3)cc2c1=O,4.9
COc1ccc(CN(C(=O)Cn2nnc3ccccc32)C(C(=O)NC(C)(C)C)c2ccco2)cc1 (stereo unspecified),0.4
COC(=O)c1ccc(C(=O)OC)c(NC(=O)CSc2ccccn2)c1,i
CCC(C)NC(=O)c1c(N)n(Cc2ccc3c(c2)OCO3)c2nc3ccccc3nc12 (stereo unspecified),i
Cc1ccccc1CCN(C(=O)Cn1nnc2ccccc21)C(C(=O)NC(C)(C)C)c1ccsc1 (stereo unspecified),0.2
COc1ccc(-n2c(-c3ccccc3)nnc2-c2ccc(Cl)cc2)cc1,i
Cn1c2c(c(=O)n(C)c1=O)C1c3cc(Cl)ccc3OCC1CO2 (stereo unspecified),0.8
O=C(CSc1nnc2c(Cl)cc(Cl)cn12)N1CCN(S(=O)(=O)c2ccccc2)CC1,0.7
Cn1c(-c2ccc(Cl)cc2)cnc1N,i
CCSc1nnc(NC(=O)COc2ccc3ccccc3c2)s1,0.1
Cc1ccc(S(=O)(=O)N2CCC(C(=O)OC(C)C(=O)NCc3ccc4c(c3)OCO4)CC2)cc1 (stereo unspecified),i
COc1ccc2ccccc2c1CN1CCN(C)CC1,0.4
CC1CN(C2CCN(S(=O)(=O)c3ccc4ccccc4c3)CC2)CC(C)O1 (stereo unspecified),0.1
Cc1onc(-c2c(F)cccc2Cl)c1C(=O)N1C=CC(C(F)(F)Cl)=NCC1,0.9
CC(C)CNC(=O)C1C2C=CC(C2)C1C(=O)O (stereo unspecified),i
CN(C)CCCNC(=O)C1CCNCC1,i
CCNC(=O)CC1C(=O)N(c2ccc(F)cc2)C(=O)N1CCC(C)C (stereo unspecified),0.7
Cc1ccc(-n2[nH]c(C)c(/C=N/n3c(C)nc4ccccc4c3=O)c2=O)cc1,i
COc1ccc(N2C(=O)C3CCCN3C2c2ccccc2OC)cc1 (stereo unspecified),1.2
Cc1cc(NCCCn2ccnc2)n2c(nc3ccccc32)c1C#N,0.4
COc1cccc(C2C3=C(N=C4SCC(=O)N42)c2ccccc2CC3)c1OC (stereo unspecified),1.4
CC(=O)NC1(c2nnnn2CCOC(=O)Nc2ccc(Cl)cc2)CCCCC1,i
COCCNC(=O)C(c1ccc(C)o1)N(C(=O)c1snc(C(N)=O)c1N)c1ccc(C)cc1 (stereo unspecified),0.5
CSCCC(NC(=O)c1occc1C)C(=O)O (stereo unspecified),i
CC(=O)c1sc(NC(=O)C2(F)C(F)(F)C(F)(F)C(F)(F)C(F)(F)C2(F)F)nc1C,i
Cc1ccc2[nH]c(=O)c3cc(C(=O)N4CCN(C(=O)c5ccco5)CC4)sc3c2c1,i
Cc1cc(NS(=O)(=O)c2ccc(Nc3nc(-c4sc(NC(=O)c5ccccc5)nc4C)cs3)cc2)no1,0.1
Cc1cc(Oc2ccc(C#N)cc2)nc(N2CCOCC2)n1,i
Cc1ccc(NCc2nnc(SCc3ccc(C#N)cc3)n2Cc2ccco2)c(C)c1,i
CNC(=O)c1sc2nc(-c3ccc(OC)cc3)cn2c1C,1.5
Cc1ccc(C(=O)N/N=C\c2ccc[nH]2)cc1[N+](=O)[O-],i
O=C(Cn1cnc2sc(-c3ccccc3)cc2c1=O)N1CCOCC1,i
CCOC(=O)CSc1n[nH]c(NC(=O)c2ccc(F)cc2)n1,i
CCCc1[nH]n(-c2nc3ccccc3s2)c(=O)c1C=NCC1CCCO1 (stereo unspecified),i
Cc1ccc(Cl)cc1NC(=O)COC(=O)C12CC3CC(CC(C3)C1)C2,0.7
Cc1cc(C(=O)CN2C(=O)CCC2=O)c(C)n1Cc1ccccc1,0.4
CCc1ccccc1N(C(=O)Cn1nnc2ccccc21)C(C(=O)NCCOC)c1ccco1 (stereo unspecified),0.7
CC1(c2ccc(OC(F)F)cc2)NC(=O)N(CC(=O)Nc2ccc3c(c2)OCO3)C1=O (stereo unspecified),i
COc1ccc(C(=O)Nc2nncs2)c(OC)c1,0.4
Cc1cc(NC(=O)COn2nnc3ccccc32)no1,0.5
S=c1nc2ccccc2c2nc(-c3ccccc3)[nH]n12,0.4
O=C(c1ccc2ccccc2n1)N1CCN(c2ccccc2)CC1,1.3

# The results go on:
SMILES,H5N1 CPE
C=CCOc1ccc(/C=N/n2cncn2)cc1OC,0.4
O=C1CCCC2=C1C(c1ccc(Br)cc1)c1c([nH]c(=S)[nH]c1=O)N2 (stereo unspecified),0.3
Cc1ccc2nc3ccc(N4CCN(C)CC4)nn3c(=O)c2c1,0.9
CSC1=NCCN1C(=O)c1ccc2c(c1)OCO2,i
CCCC1C(c2ccco2)NC(c2ccco2)CC1(C)O (stereo unspecified),0.3
CCCCC(CC)COC1(c2ccccc2)OC(=O)c2ccccc21 (stereo unspecified),i
C#CCSc1nnc(-c2sc(-c3ccccc3)nc2C)n1C,i
CCOC(=O)c1c(N2CCCCC2)c2ccccc2[nH]c1=O,0.5
CCC(SC1=NCCS1)C(=O)Nc1nnc(-c2ccccc2OC)s1 (stereo unspecified),0.2
CCOc1cccc(=O)c2c(C)n(Cc3ccco3)c(C)c12,0.2
CN(C)S(=O)(=O)c1cccc(C(=O)NC2CCCc3ccccc32)c1 (stereo unspecified),0.3
CCOC(=O)CC(=O)Nc1ccc(Br)cc1C(=O)O,i
Cc1ccc(NC(=O)CN(C)C(=O)CSc2nc3ccccc3c(=O)n2Cc2ccco2)cc1,1.2
Cc1ccc(S(=O)(=O)NC2=NCN(C3CCCCC3)CN2)cc1,i
Cc1cc(N2C(=O)C(=O)/C(=C(/O)c3ccc(F)cc3)C2c2ccc(F)cc2)no1 (stereo unspecified),0.0
Cc1ccc2c(c1)C(C)CC(C)(C)N2C(=O)NC1CCCCC1 (stereo unspecified),0.6
COc1ccc(CCN2C(=O)C(O)=C(C(C)=O)C2c2ccccc2OC)cc1OC (stereo unspecified),0.5
CCOc1ccc(C2OC(=O)Cc3cc(OC)c(OC)cc32)cc1 (stereo unspecified),i
O=c1n(S(=O)(=O)c2cccc3cccnc23)c2ccccc2n1S(=O)(=O)c1cccc2cccnc12,1.7
CCOC(=O)c1cccc(NC(=O)CN2CCN(c3ccc(OC)cc3)CC2)c1,1.2
COc1ccccc1Cc1noc(-c2cc(Cl)ccc2OC)n1,i
CCOC(=O)c1c(-c2cccs2)csc1NC(=O)CC(C)C,0.7
Cc1ccc(C(=O)Nc2oc(-c3ccccc3)cc2C#N)cc1,i
COc1cc2nc(N3CCNCC3)nc(N)c2cc1OC,0.1
O=C(O)C1CCCN1C(=O)Oc1ccccc1 (stereo unspecified),0.6
O=C(CC1(O)C(=O)N(Cc2ccc3c(c2)OCO3)c2ccccc21)c1ccccc1 (stereo unspecified),i
O=C1CN(S(=O)(=O)c2ccc(F)cc2)CC(=O)N1CCc1ccccc1,i
Cc1ccc(NC2CC(=O)N(c3ccc(C)cc3)C2=O)cc1 (stereo unspecified),1.0
CCOCCCNS(=O)(=O)c1ccc2c(c1)OCCO2,i
COc1ccccc1C(=O)Nc1ccc(Oc2ncnc3sc(-c4ccccc4)cc23)cc1,i
O=C1c2ccccc2C(=O)N1CCCCSc1nnc2c(Cl)cc(Cl)cn12,3.8
CC(C)(C)C(=O)Nc1c2c(nc3c1CCC3)CCCC2,i
COC(=O)C1=C(C)Nc2ncnn2C1c1ccc(OC(=O)c2ccccc2)cc1 (stereo unspecified),1.2

# Grouped by structure, the entries above containing a furan ring, fused or not.
SMILES,H5N1 CPE
CCn1c(SCC(=O)Nc2ccccc2C(=O)OC)nnc1-c1ccoc1C,0.6
CN(C)c1ccc2c(c1)N=C(c1ccco1)OP2(=S)N1CCOCC1 (stereo unspecified),i
O=C(Nc1ccccc1)/C(=C\c1ccc2c(c1)OCO2)NC(=O)c1ccco1,0.0
Cc1ccc(-c2nnn(CC(=O)Nc3cccc4cccnc34)n2)o1,i
Cc1nc2oc(C(=O)c3ccccc3)c(N)c2c2c1COC(C)(C)C2,0.8
CN1CCc2c(sc(/N=C/c3ccco3)c2C(N)=O)C1,2.5
Cc1ccc(S(=O)(=O)N/N=C\c2ccc(C)o2)cc1,i
CC(=O)c1ccc(-c2nc3c4ccccc4ccn3c2C(C)=O)o1,0.8
COc1ccc(CN(C(=O)Cn2nnc3ccccc32)C(C(=O)NC(C)(C)C)c2ccco2)cc1 (stereo unspecified),0.4
COCCNC(=O)C(c1ccc(C)o1)N(C(=O)c1snc(C(N)=O)c1N)c1ccc(C)cc1 (stereo unspecified),0.5
CSCCC(NC(=O)c1occc1C)C(=O)O (stereo unspecified),i
Cc1ccc2[nH]c(=O)c3cc(C(=O)N4CCN(C(=O)c5ccco5)CC4)sc3c2c1,i
Cc1ccc(NCc2nnc(SCc3ccc(C#N)cc3)n2Cc2ccco2)c(C)c1,i
CCc1ccccc1N(C(=O)Cn1nnc2ccccc21)C(C(=O)NCCOC)c1ccco1 (stereo unspecified),0.7
CCCC1C(c2ccco2)NC(c2ccco2)CC1(C)O (stereo unspecified),0.3
CCOc1cccc(=O)c2c(C)n(Cc3ccco3)c(C)c12,0.2
Cc1ccc(NC(=O)CN(C)C(=O)CSc2nc3ccccc3c(=O)n2Cc2ccco2)cc1,1.2
Cc1ccc(C(=O)Nc2oc(-c3ccccc3)cc2C#N)cc1,i

# Some of the compounds tested; the hit share may differ from the screen's.
